RecA splice inh = blocks M. tuberculosis RecA intein splicing; 0.75% of 290,000 active; P9WHJ3; AID 2221; inhibition, %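 (about 9 µM by stock and volumes)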; cell-free RecA intein splicing, fluorescence; in the data active = inhibition above about 30%; inconclusive = no clear call, values can overlap the other calls;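 note: 0% = vehicle wells and 100% = reference inhibitor control wells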
Target sequence (P9WHJ3 whole entry, looked up, canonical isoform): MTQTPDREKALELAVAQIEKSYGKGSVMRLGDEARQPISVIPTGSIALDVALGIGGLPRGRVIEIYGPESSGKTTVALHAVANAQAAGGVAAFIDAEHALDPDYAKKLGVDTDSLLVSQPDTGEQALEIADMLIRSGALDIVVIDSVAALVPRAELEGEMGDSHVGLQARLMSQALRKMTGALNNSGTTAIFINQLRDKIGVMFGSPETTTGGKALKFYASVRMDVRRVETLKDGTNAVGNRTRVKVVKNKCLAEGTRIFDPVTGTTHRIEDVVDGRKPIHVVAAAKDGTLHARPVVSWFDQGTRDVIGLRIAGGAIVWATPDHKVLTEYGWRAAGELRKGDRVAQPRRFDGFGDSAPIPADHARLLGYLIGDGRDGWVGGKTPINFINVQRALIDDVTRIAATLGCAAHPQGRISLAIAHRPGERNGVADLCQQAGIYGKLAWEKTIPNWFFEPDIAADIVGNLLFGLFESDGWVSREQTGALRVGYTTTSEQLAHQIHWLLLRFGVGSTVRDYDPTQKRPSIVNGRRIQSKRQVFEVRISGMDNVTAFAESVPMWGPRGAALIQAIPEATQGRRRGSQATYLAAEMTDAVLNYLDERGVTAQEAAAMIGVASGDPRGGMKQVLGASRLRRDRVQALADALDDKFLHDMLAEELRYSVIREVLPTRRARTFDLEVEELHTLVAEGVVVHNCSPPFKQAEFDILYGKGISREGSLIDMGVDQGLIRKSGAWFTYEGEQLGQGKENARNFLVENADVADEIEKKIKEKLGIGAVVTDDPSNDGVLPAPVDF
Mtb H37Rv = M. tuberculosis H37Rv growth inhibitors, H37Rv strain (AID 1626); M. tuberculosis H37Rv growth inhibition; higher % means a stronger effect; one-dose inhibition, % at 10 µM; IC50 in µM for titrated hits; 0.95% of 220,000 active;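 active = confirmed in a dose series; inconclusive = inhibition above 80% but not taken into the dose series; inactive = below 80% or under 30% at every dose of the series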;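 note: bacteria incubated seven days before Alamar blue readout; 0% = bacteria only wells and 100% = bacteria with antibiotic wells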
YopH PTP inh = YopH (Yersinia) phosphatase inhibition. inhibition, %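 (about 10 µM by stock and volumes)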. fluorescence Ex485/Em525. 0.16% of 140,000 active. AID 898;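 active = inhibition of 50% or more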;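 note: controls were vehicle for no effect and minimum signal wells for full effect; inactives centre near -20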
Mtb betalactam = beta-lactam sensitization of Mtb H37Rv; inhibition, % at 25 µM; 0.27% of 330,000 active; M. tuberculosis H37Rv growth with meropenem, percent inhibition; hits of this screen are not shown here; AID 434955;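 active = about 74% or more and at least 40 points above the plate without the antibiotic, then above 30% in a dose series; inconclusive = first-round hits that could not be retested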;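 note: growth measured after seven days incubation then overnight dye step; 0% = bacteria only wells and 100% = bacteria with antibiotic; twin plates without the antibiotic show which effects depend on it; some results filed as inactive read as strong as hits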
Arbovirus inh = blocks arbovirus infection; arbovirus infection cell-based antiviral screen; inhibition, % at 10 µM; 0.37% of 200,000 active; AID 1251;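 active = inhibition from about 30%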;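 note: bluetongue infection of BSR cells; cell survival read as ATP light after 72 h; 0% = infected wells without compound and 100% = uninfected wells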
Arbovirus inh repeat = also measured in Arbovirus inh; calls as there; inhibition, %; measured here: 10K subset replicate screen; many hits read low in the repeat;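 first of two repeat runs on a subset; 0% = infected and 100% = uninfected wells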
* marks the source's active call; other numbers are inactive results; i = inactive; u = inconclusive; x = not tested or not shown; & = joins results of further samples. These rows are one share of the data (hit frequency here may not be typical).

SMILES	RecA splice inh	Mtb H37Rv	YopH PTP inh	Mtb betalactam	Arbovirus inh	others
CN1CCN(S(=O)(=O)c2cccc(C(=O)Nc3nccs3)c2)CC1	-1.4	-4%	x	-5	x
COc1ccc(CCNC(=O)C(=O)Nc2nccs2)cc1OC	1.4	-4%	-17	-7	8
Cc1cc2c(c(SCC(=O)N(C)c3ccccc3)n1)C(=O)OC2	1.6	-10%	-38	-9	3
O=C(Cc1ccc(-n2c(=O)[nH]c3ccccc3c2=O)cc1)N1CCN(c2cccc(Cl)c2)CC1	0.4	-2%	-11	-6	2
CCCCNC(=O)Cn1c(=O)oc2cc(S(=O)(=O)N3CC(C)CC(C)C3)ccc21 (stereo not given)	0.3	3%	-30	8	-12
COc1ccccc1C1=NOC(COC(=O)c2ccc3ccccc3n2)C1 (stereo not given)	-2.2	26%	-44	33	0
O=C(C[N+]12CCC(CC1)C(CO)C2)c1ccc([N+](=O)[O-])cc1 (stereo not given)	-3.2	-1%	x	2	1
COc1cccc(CNC(=O)c2ccc(OC)c(S(=O)(=O)NC3CCCC3)c2)c1	2.2	x	x	0	x
Cc1cccnc1NC1OC(=O)c2ccccc21 (stereo not given)	-2.3	-7%	0	4	-5
Cc1ccc(S(=O)(=O)Cc2cccc(C(=O)N3CCOCC3)c2)cc1	0.4	-10%	-5	-6	2
Cc1ccccc1CNC1CCCCC1	-0.3	-6%	-40	-7	5
COc1nnc(-c2ccc(C)c(S(=O)(=O)NCC3CCCO3)c2)c2ccccc12 (stereo not given)	5.5	x	x	-2	x
COC(=O)c1cc(CNC(=O)CC(C)c2ccccc2)ccc1OC (stereo not given)	4.5	x	x	-1	x
O=C(O)C1C2C=CC(C2)C1C(=O)NCc1cccnc1 (stereo not given)	-1.9	4%	-30	-5	0
Cc1cc(=O)oc2c3c4c(cc12)OCCN4CCC3	i	-6%	-27	4	0
O=[N+]([O-])c1ccc2c(c1)S(=O)c1ccccc1-2 (stereo not given)	2.4	2%	x	-4	x
O=C1CN(S(=O)(=O)c2ccc(Br)cc2)c2ccccc2N1	1.7	x	x	-6	x
O=C(CCCNC(=O)c1ccc(Cl)cc1)OCc1cccc(Br)c1	-2.7	x	x	68	x
COc1ccc(C/C(N)=N/OC(=O)Cc2ccccc2)cc1OC	2.2	-4%	-36	-5	-6
CCOC(=O)c1c(C)nc2sc3c(=O)n(-c4ccc(C(C)=O)cc4)cnc3c2c1-c1ccc(Cl)cc1	4.9	9%	-1	7	-16
COc1ccc(C(=O)CC(=O)O)c2c1C=CC(C)(C)O2	-4.7	-10%	3	-6	3
CC(=O)c1ccc(NC(=O)C2CCCC2)cc1	-1.9	x	x	-1	x
CN1C(=O)/C(=C2\SC(=S)N(CC3CCCO3)C2=O)c2ccccc21 (stereo not given)	x	0%	-41	x	2
CCOCCCNC(=O)CCNC(=O)c1cc(OC)c(OC)c(OC)c1	9.9	1%	-48	-5	-3
Cc1c(CCC(=O)N2CCC(C(=O)O)(c3ccccc3)CC2)c(=O)oc2cc3oc4c(c3cc12)CCCC4	-5.6	x	x	-6	x
COc1ccc(NC(=O)CN(C)C(=O)c2cccc(S(=O)(=O)N3CC4(C)CC3CC(C)(C)C4)c2)cc1 (stereo not given)	2.2	x	x	-19	x
Clc1ccc(CN=C2Nc3ccccc3CS2)cc1	3.1	1%	0	-4	-1
CCn1c(=O)c(C(=O)NNC(=O)c2cccc(Cl)c2)c(O)c2ccccc21	4.9	x	x	100	x
CC1S/C(=N/N=C2CCCCC2)NC1=O (stereo not given)	0.0	6%	-26	73	3
CN(C)c1ccc(C2Nc3ccccc3C(=O)N2NS(C)(=O)=O)cc1 (stereo not given)	-3.0	x	x	-2	x
c1ccc2sc(-c3ccc4c(c3)OCO4)nc2c1	x	-3%	-33	-4	-6
Cc1ccc2[nH]c(=O)c(CN(CC3CCCO3)C(=S)NCc3ccco3)cc2c1 (stereo not given)	-0.1	5%	-35	6	2
CCOc1cccc2sc(N(CCN(CC)CC)C(=O)c3ccc(S(=O)(=O)N4CCCCC4)cc3)nc12	1.6	2%	x	6	-4
CN1/C(=C\C(=O)C[n+]2ccc3ccccc3c2)C(C)(C)c2ccccc21	0.9	9%	x	x	19
COc1ccc(CCNC(=O)[C@@H](NC(N)=O)C(C)C)cc1	-1.0	2%	x	7	10
Cn1ccnc1SCCNC(=O)CCc1nnc(CCc2ccccc2)o1	0.7	-9%	x	-4	3
O=C1NC(=O)N(c2ccccc2)C(=O)/C1=C\C=C\c1ccccc1	x	-3%	x	2	x
CCC(C)NC(=O)c1cc2cc3ccc(OC)cc3nc2s1 (stereo not given)	-7.6	12%	-23	63	-8
Cc1ccc(-c2c[n+](CC(=O)Nc3nc(-c4ccc(F)cc4)cs3)c3n2CCC3)cc1	8.6	4.9µM*	-2	99	7
CCCCCCCc1ccc(C2NC(=S)NC3=C2C(=O)c2ccccc23)cc1 (stereo not given)	0.3	x	x	1	x
COC(=O)/C(=C\Nc1ccccc1N)c1ncc(C(F)(F)F)cc1Cl	8.8	-2%	-8	3	-7
Cc1nc(CSc2ccccc2)cc(=O)[nH]1	-2.3	6%	x	-4	11
COCCc1nnc(NC(=O)C(C)C)s1	-1.9	-8%	x	3	x
O=C(NCc1ccccc1)C1=C[C@H](C2CC2)C[C@H](OCCCCO)O1	1.5	-2%	x	-1	2
CC(C)C1=NN(C(=O)c2ccccc2)C(O)(C(C)(C)C)C1 (stereo not given)	0.6	x	-15	5	9
Cn1c(C(C(=O)NCC2CCCO2)N(C(=O)Cn2nnc3ccccc32)C2CCCCC2)nc2ccccc21 (stereo not given)	0.5	-11%	0	-8	0
CCOC(=O)NC(NCc1cccc(C(F)(F)F)c1)(C(F)(F)F)C(F)(F)F	-2.6	7%	-24	5	16
Cc1ccc(Oc2nc(CN3CCOCC3)nc3sc4c(c23)CCC(C)C4)cc1 (stereo not given)	3.3	17µM*	-42	x	-38
COc1ccc(N(CC(=O)Nc2cc(C)ccc2OC)S(=O)(=O)c2c(C)noc2C)cc1	0.3	1%	-26	-9	-3
CS(=O)(=O)c1ccc(-c2cccc(NC(=O)COc3ccccc3)c2)nn1	3.2	x	x	-3	x
Nc1ccccc1C#Cc1ccc2[nH]ccc2c1	1.2	-13%	x	-5	x
Cn1c(N)c(C(=O)NCc2ccccc2)sc1=S	-1.0	-1%	-40	6	3
COc1cc(C(=O)NCc2nnc(SCC(=O)NCCc3ccccc3)o2)cc(OC)c1OC	-3.1	x	x	-2	x
O=C(O)CCCn1cc(NC(=O)COc2cccc(Cl)c2)cn1	4.3	x	x	4	x
COc1ccc(C(CNC(=O)c2ccc(S(=O)(=O)N(C)C)cc2)N(C)C)cc1 (stereo not given)	1.1	3%	x	-2	0
COc1ccc(NC(=O)/C(C#N)=C\c2ccc(OCc3ccc(C(=O)O)cc3)c(OC)c2)cc1	1.2	-3%	x	0	-11
CC(C)COC(=O)NC1c2ccccc2Oc2ccccc21	0.6	13%	x	-1	x
O=C(CSCc1cc(=O)n2ccsc2n1)Nc1ccccc1	2.3	x	x	-5	x
CC1(C)Cc2c(sc(NC(=O)c3ccco3)c2C#N)C(C)(C)N1	-2.1	-12%	x	-12	x
OC(Cn1c2ccccc2c2ccccc21)C[n+]1ccccc1 (stereo not given)	-2.2	0%	-28	3	-4
(continued)
SMILES	RecA splice inh	Mtb H37Rv	YopH PTP inh	Mtb betalactam	Arbovirus inh	others
CCOc1ccc(CCNC(=O)c2oc3c(c2C)-c2[nH]ncc2CC3)cc1OCC	0.4	-6%	-11	5	-5	Arbovirus inh repeat=-7
CC1=C(C#N)C(c2cn(-c3ccccc3)nc2-c2cccs2)C(C#N)=C(C)N1	5.2	-1%	-38	8	-1
COc1ccc(OC)c(C(Nc2ccccc2)P(=O)(OC(C)C)OC(C)C)c1 (stereo not given)	2.5	0%	x	2	x
CCOC(=O)C1CCN(Cc2c(F)cccc2Cl)CC1	-0.6	-3%	-20	-3	-1
Cc1ccc(Oc2ccc(C=O)cn2)cc1	1.3	0%	x	2	7
COCCCNC(=O)CCc1ccc(S(=O)(=O)Nc2ccc(C)cc2)cc1	-1.0	-6%	5	-11	3
CCOC(=O)c1sc(-c2ccc(C(F)(F)F)cc2)nc1O	-444	-1%	x	28	x
CCOC(=O)C1=C(N2CCCCC2)c2cc3c(n2C1=O)CCCC3	2.9	4%	-21	-5	-21
CC(C)(C)C1CCc2c(sc(NC(=O)c3ccncc3)c2C(N)=O)C1 (stereo not given)	-12	u	-28	78	-3
COc1cc(C(=O)NCc2nnc(SCC(=O)N3CCCCC3)o2)cc(OC)c1OC	-2.6	1%	-16	-11	-1
O=C(NCc1cccnc1)c1cccnc1Sc1ccc(Cl)cc1	-0.7	-2%	-6	6	-2
Cc1nn(CC2CC2)c(=O)n1-c1ccccc1F	4.9	7%	x	-6	7
Cc1ccccc1Cn1ccc(-c2ccc(Cl)cc2)c(C#N)c1=O	1.2	-7%	-40	10	4
CCCCCCSc1ccc([C@H]2N[C@@](CC(C)C)(C(=O)OC)[C@H]3C(=O)N(C)C(=O)[C@@H]23)cc1	7.3	x	x	-13	x
CCOc1ccc2[nH]c(=O)c(CN(Cc3ccc(C)cc3)C(=O)N3CCCC3)cc2c1	-0.1	-3%	-1	-11	-4
Cc1ccnc(NC(=O)c2cccc([N+](=O)[O-])c2C)c1	-3.2	0%	x	1	6
COCCn1c(=O)[nH]c2cc(C(=O)N3CCN(c4ccccc4F)CC3)ccc2c1=O	-0.7	x	x	13	x
COC(=O)c1nnn(-c2nonc2N)c1COc1ccc(C=O)cc1OC	0.1	10%	x	-6	7
Cc1nc2c3ccccc3nc(NNC(=O)CCC(=O)NCCC(C)C)n2n1	-3.2	4%	-16	-6	-2
CN1CCN(NC(=O)c2cn(-c3ccccc3)nc2-c2cccs2)CC1	-4.3	6%	x	-6	8
COC(=O)c1ccccc1OCC(=O)N1CCN(c2ccc(OC)cc2)CC1	-0.9	-5%	-28	u	4
CC(NC(=O)Nc1ccccc1C(F)(F)F)C1CCCO1 (stereo not given)	-1.0	-7%	0	-6	10
CC(C)(C)c1ccc(NC(=O)COC(=O)CCc2nc3ccccc3c(=O)[nH]2)cc1	-15	3%	-15	-5	-1
C(=N\N1CCN(C2c3ccccc3-c3ccccc32)CC1)/c1cccnc1	6.5	22%	-26	97	-13
O=C(/C=C/c1ccc(O)c(O)c1)O[C@@H]1C[C@](O)(C(=O)O)C[C@@H](O)[C@H]1O	-6.0	x	x	-4&6	x
Nc1cc(C(F)(F)F)ccc1OCC1CCCO1 (stereo not given)	-1.4	x	x	0	x
CC(=O)NC1(C(F)(F)F)C(=O)Nc2c1c(=O)[nH]c(=O)n2CCc1ccccc1 (stereo not given)	0.3	2%	x	3	x
O=C(CN1C(=O)/C(=C/c2ccccc2)SC1=S)N1CCN(CCc2ccccn2)CC1	13	x	x	-1	x
O=C(Nc1c2c(nn1-c1ccc([N+](=O)[O-])cc1)CS(=O)(=O)C2)c1ccco1	1.6	x	x	-2	x
Cc1ccc(NC(=O)N2CCCC2C(=O)NCC2CCCO2)cc1 (stereo not given)	1.0	-5%	x	-1	2

Grouped by structure: those above with a CF3 group.
SMILES	RecA splice inh	Mtb H37Rv	YopH PTP inh	Mtb betalactam	Arbovirus inh	others
COC(=O)/C(=C\Nc1ccccc1N)c1ncc(C(F)(F)F)cc1Cl	8.8	-2%	-8	3	-7
CCOC(=O)NC(NCc1cccc(C(F)(F)F)c1)(C(F)(F)F)C(F)(F)F	-2.6	7%	-24	5	16
CCOC(=O)c1sc(-c2ccc(C(F)(F)F)cc2)nc1O	-444	-1%	x	28	x
CC(NC(=O)Nc1ccccc1C(F)(F)F)C1CCCO1 (stereo not given)	-1.0	-7%	0	-6	10
Nc1cc(C(F)(F)F)ccc1OCC1CCCO1 (stereo not given)	-1.4	x	x	0	x
CC(=O)NC1(C(F)(F)F)C(=O)Nc2c1c(=O)[nH]c(=O)n2CCc1ccccc1 (stereo not given)	0.3	2%	x	3	x

By substructure: those above containing bromine (2)
SMILES	RecA splice inh	Mtb H37Rv	YopH PTP inh	Mtb betalactam	Arbovirus inh	others
O=C1CN(S(=O)(=O)c2ccc(Br)cc2)c2ccccc2N1	1.7	x	x	-6	x
O=C(CCCNC(=O)c1ccc(Cl)cc1)OCc1cccc(Br)c1	-2.7	x	x	68	x

New compounds follow
SMILES	RecA splice inh	Mtb H37Rv	YopH PTP inh	Mtb betalactam	Arbovirus inh	others
CCCCn1c(SCC(=O)NCc2ccco2)nc2c1c(=O)n(C)c(=O)n2C	1.4	7%	34	-12	1
Cc1ccnc2nc(C(=O)OCC(=O)N3CCc4ccccc43)nn12	4.1	6%	x	4	5
Cc1cccn2c(=O)c3cc(C(=O)N4COCC4(C)C)sc3nc12	-23	1%	x	1	12
COc1ccc(CC(C)CC(=O)NCCc2ccc(OC)c(OC)c2)cc1 (stereo not given)	-0.9	x	x	u	x

High-throughput results as filed in PubChem BioAssay.
